High-throughput results from PubChem.
Rango complex inh: prevents formation of the Rango-importin beta complex | Q14974 | Rango CFP/YFP FRET sensor + importin beta, 45 min | Potency, µM (highest dose often 92.2 µM), without a hit: at the highest dose inhibition of complex formation | 340,000 tested, 0.031% active | AID 540263; active = rising FRET ratio curve, often small or poorly fitted; inconclusive = mostly compound fluorescence or quenching in the first reads; inactive = flat curves in all reads;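 further: potency means the concentration at half of the fitted maximal effect; 0% = DMSO wells and 100% = buffer wells lacking importin beta; nearly all actives have a fitted effect of over 15% in size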
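FRET biosensor (snurportin 1 IBB flanked by EYFP and cerulean), 50 nM, with compound 5 min, then 0.125 microM importin beta in PBS, 1 mM DTT, 0.02% Tween-20, 0.1% BSA. CFP/YFP ratio read after 45 min at room temperature; pre-read flags interference.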
Rango dissoc inh: prevents RanGTP from dissociating the Rango-importin beta complex; O95149+P62826; Potency, µM (titrated, usually from 46.1 µM), inactives show at the top dose activity change, negative = inhibition; Biochemical FRET Rango-importin beta, RanGTP-induced dissociation; AID 540253; 340,000 tested, 0.071% active; active means falling FRET ratio curve, often poorly fitted, with flat reads before Ran was added; inconclusive means other falling curves, or compound fluorescence or quenching; inactive means flat or rising ratio curve;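 further: potency means the concentration at half of the fitted maximal effect; % of control where 0% means no effect; nearly all actives have a fitted effect of over 45% in size; -100% = wells without RanGTP and RCC1; the record marks most hits as doubtful in a second field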
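Two FRET readings bracket the reaction: one 5 min after compound meets Rango–importin beta, another 45 min after RanGTP-RCC1 (0.6 uM Ran, 0.2 uM RCC1, 2 mM GTP) is added. Only the second defines inhibition.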
miR-21 FLuc: raises the signal of a miR-21 reporter. HeLa miR-21 FLuc reporter, luciferase, 48 h. Potency, µM (top dose mostly 38.3 µM), for inactives: at the top dose reporter change, positive = more light. 340,000 tested, under 10 active. AID 2288; active = well fitted rising curve with a large enough effect; inconclusive = small, poorly fitted or top-dose-only effect; inactive = no such curve, though single readings can be large or run the other way;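 further: % of control where 0% means no effect; miR-21 action dims this reporter so a rising signal means less miR-21 action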
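Using DMEM plus 10% FBS, HeLa miR-21-FLuc cells are incubated with test compounds (final up to about 40uM) for 48 hours; firefly luciferase signal is then imaged following reagent-mediated lysis.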
GLA inh pH 4.5: blocks human alpha-galactosidase A at pH 4.5; purified enzyme, 4-MU-alpha-Gal fluorescence, pH 4.5; P06280; activity change, negative = inhibition, % at 105 µM; 230,000 tested, under 10 active; inconclusive = small, poorly fitted or top-dose-only inhibition, or a rising curve; inactive = flat fitted curve, though single readings scatter; no compound was filed as active;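 further: 0% = full activity with enzyme and -100% = basal without enzyme; dose as in the result columns while the protocol names 77 µM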
Target sequence (P06280 whole entry, looked up): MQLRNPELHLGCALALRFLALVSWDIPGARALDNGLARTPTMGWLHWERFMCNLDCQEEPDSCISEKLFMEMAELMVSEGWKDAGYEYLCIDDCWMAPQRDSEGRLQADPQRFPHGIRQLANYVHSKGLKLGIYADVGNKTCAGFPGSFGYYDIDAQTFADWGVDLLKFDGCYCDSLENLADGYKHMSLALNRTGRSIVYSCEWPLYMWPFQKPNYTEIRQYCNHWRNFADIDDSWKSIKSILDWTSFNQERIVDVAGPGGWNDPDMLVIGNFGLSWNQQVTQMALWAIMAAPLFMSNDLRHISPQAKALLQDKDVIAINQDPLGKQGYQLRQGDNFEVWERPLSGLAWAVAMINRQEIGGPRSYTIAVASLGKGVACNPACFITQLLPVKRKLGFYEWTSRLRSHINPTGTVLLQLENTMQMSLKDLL
Numbers without * were called inactive; [ ] = another dose, or the depositor's remark. Only part of the results is shown; the hit share may differ from the screen's.

`NS(=O)(=O)c1ccc(NC(=O)Nc2ccc(Cl)cc2)cc1` gave Rango complex inh 1.5%, Rango dissoc inh 6%, miR-21 FLuc -37% and GLA inh pH 4.5 -12.
`CCCCC(=O)N/N=C(\C)c1cccc(NC(=O)C2CC2)c1` gave Rango complex inh -4.5%, Rango dissoc inh 1%, miR-21 FLuc 0% and GLA inh pH 4.5 1.
`COc1ccc(C2C(=O)N(C3CCCCC3)CC(=O)N2C2CCCC2)cc1` (stereo not drawn) gave Rango complex inh 2.8%, Rango dissoc inh 0%, miR-21 FLuc -4% and GLA inh pH 4.5 11.
`COc1cccc(/C=N/Nc2nc(C)cc(=O)[nH]2)c1OC` gave Rango complex inh 6.2%, Rango dissoc inh 0% and miR-21 FLuc -26%.
`Cc1ccc2c(c1)N(CC(=O)NCCC1=CCCCC1)C(=O)c1cccnc1O2` gave Rango complex inh 5.9%, Rango dissoc inh 7% and miR-21 FLuc 8%.
`COc1ccc(C(=O)NCCSc2ccccc2)cc1` gave Rango complex inh -1.6%, Rango dissoc inh inconclusive, miR-21 FLuc -19% and GLA inh pH 4.5 3.
Cc1ccc(NC(=O)CCc2nc3ccccc3s2)c(O)c1 was read as Rango complex inh -0.1%, Rango dissoc inh -1%, miR-21 FLuc -10% and GLA inh pH 4.5 5.
O=C(c1n[nH]c(=O)c2ccccc12)N1CCN(C2c3ccccc3-c3ccccc32)CC1 was read as Rango complex inh inconclusive, Rango dissoc inh -16%, miR-21 FLuc 14% and GLA inh pH 4.5 -23.
`CCOC(=O)C1CCCN(CC(O)COc2cccc(C)c2)C1` (stereo not drawn) gave Rango complex inh -2.6%, Rango dissoc inh 2%, miR-21 FLuc -2% and GLA inh pH 4.5 0.
Cc1cccc(Nc2nc(NCc3ccco3)nc(N)c2[N+](=O)[O-])c1 was read as Rango complex inh 0.2%, Rango dissoc inh 0%, miR-21 FLuc -8% and GLA inh pH 4.5 -7.
`Cc1cccc(CCNC(=O)Cn2ncc3c([nH]c4ccc(C)cc43)c2=O)c1` gave Rango complex inh -0.8%, Rango dissoc inh 5% and miR-21 FLuc -1%.
For COc1cc(/C=N/NS(=O)(=O)c2ccc(C)c([N+](=O)[O-])c2)cc([N+](=O)[O-])c1O the results were Rango complex inh 0.8%, Rango dissoc inh 1% and miR-21 FLuc -3%.
For COCCN(C(=O)CCc1nnc(CCc2c[nH]c3ccccc23)o1)C(C)C the results were Rango complex inh 0.7%, Rango dissoc inh 1%, miR-21 FLuc -1% and GLA inh pH 4.5 12.
`C#Cc1ccc([C@@H]2C=C(C(=O)Nc3ccccc3)O[C@H](OCC)[C@H]2CCCO)cc1` gave Rango complex inh -3.3%, Rango dissoc inh 3%, miR-21 FLuc 4% and GLA inh pH 4.5 -3.
Screening CCOC(=O)c1c(NC(=O)CN2CCN(S(=O)(=O)c3cc(Cl)ccc3Cl)CC2)sc(C(=O)N(C)C)c1C returned Rango complex inh -4.1% and Rango dissoc inh 1%.

Overlap with the part before: 3 entries, then new ones.
For COCCN(C(=O)CCc1nnc(CCc2c[nH]c3ccccc23)o1)C(C)C the results were Rango complex inh 0.7%, Rango dissoc inh 1%, miR-21 FLuc -1% and GLA inh pH 4.5 12.
`C#Cc1ccc([C@@H]2C=C(C(=O)Nc3ccccc3)O[C@H](OCC)[C@H]2CCCO)cc1` gave Rango complex inh -3.3%, Rango dissoc inh 3%, miR-21 FLuc 4% and GLA inh pH 4.5 -3.
Screening CCOC(=O)c1c(NC(=O)CN2CCN(S(=O)(=O)c3cc(Cl)ccc3Cl)CC2)sc(C(=O)N(C)C)c1C returned Rango complex inh -4.1% and Rango dissoc inh 1%.
Cc1nccn1CCc1nc(N)nc(N)n1 was read as Rango complex inh 1.4%, Rango dissoc inh 0%, miR-21 FLuc 1% and GLA inh pH 4.5 -4.
C[C@H](CO)N1C[C@H](C)[C@@H](CN(C)C(=O)NC2CCCCC2)Oc2c(cccc2N(C)C)C1=O was read as Rango complex inh -1.4% and Rango dissoc inh 20%.
CCOc1ccc(C(=O)NCCO)cc1 was read as Rango complex inh 4.9%, Rango dissoc inh -12%, miR-21 FLuc 1% and GLA inh pH 4.5 -3.
For O=C(NCCc1c[nH]c2ccc(Cl)cc12)c1cccnc1 the results were Rango complex inh 0.6%, Rango dissoc inh 1%, miR-21 FLuc 15% and GLA inh pH 4.5 -1.
Screening Cc1cccc(Sc2ccc([N+](=O)[O-])cc2[N+](=O)[O-])n1 returned Rango complex inh -0.3%, Rango dissoc inh -7%, miR-21 FLuc inconclusive and GLA inh pH 4.5 1.
Screening COc1ccc(NC(=O)N2CCC(c3nc4ccccc4[nH]3)CC2)cc1 returned Rango complex inh -2.0%, Rango dissoc inh -5%, miR-21 FLuc -12% and GLA inh pH 4.5 -2[21.1 µM].
`CCCS(=O)(=O)c1cn2cccc(N)c2c1S(=O)(=O)CCC` gave Rango complex inh inconclusive, Rango dissoc inh -26%, miR-21 FLuc -21% and GLA inh pH 4.5 -1.
Screening Cc1nc2ccc(NC(=O)CSc3nnc(C)s3)cc2[nH]1 returned Rango complex inh 0.9%, Rango dissoc inh -3% and miR-21 FLuc -3%.
For Cc1ccccc1-c1nn(-c2ccc(F)cc2F)cc1CNC1CC1 the results were Rango complex inh 4.3%, Rango dissoc inh 12%, miR-21 FLuc -10% and GLA inh pH 4.5 -1.
CCC(=O)Nc1ccc(Nc2ccccc2)cc1 was read as Rango complex inh -2.9%, Rango dissoc inh -11%, miR-21 FLuc -32% and GLA inh pH 4.5 -3.
`CCCCCC1CC(CC(=O)NC(=S)Nc2ccccc2Cl)C(=O)O1` (stereo not drawn) gave Rango complex inh 1.2%, Rango dissoc inh 13%, miR-21 FLuc 3% and GLA inh pH 4.5 -6.
Screening Cc1cc(C(C2C(=O)CC(C)(C)CC2=O)C2C(=O)CC(C)(C)CC2=O)cc(C)c1OC(F)F returned Rango complex inh 0.0%, Rango dissoc inh -7% and miR-21 FLuc 1%.
Screening CCCCc1ccc(CC2S/C(=C(\C#N)C(=O)N3CCOCC3)N(c3ccccc3)C2=O)cc1 (stereo not drawn) returned Rango complex inh -0.1%, Rango dissoc inh 2%, miR-21 FLuc -11% and GLA inh pH 4.5 -25.
`O=C(CCNC(=O)c1ccc(Cl)cc1)Nc1ccccc1N1CCCCC1` gave Rango complex inh -4.5% and Rango dissoc inh -2%.
COc1ccccc1OCc1nnc(SCC(=O)c2cc(Cl)ccc2OC)o1 was read as Rango complex inh 4.7%, Rango dissoc inh -9%, miR-21 FLuc -2% and GLA inh pH 4.5 -13.
For Cn1c(=O)c2[nH]c(N3CCOCC3)nc2n(-c2ccccc2)c1=O the results were Rango complex inh inconclusive, Rango dissoc inh -14%, miR-21 FLuc 0% and GLA inh pH 4.5 -3.
For Nc1ccc(-c2nc3ccc(-c4nc5ccccc5o4)cc3[nH]2)cc1 the results were Rango complex inh -2.5%, Rango dissoc inh -6%, miR-21 FLuc -25% and GLA inh pH 4.5 30.
For CC1(CCl)N([O-])C2=C(CCCC2)[N+]1=O (stereo not drawn) the results were Rango complex inh 1.3%, Rango dissoc inh -8%, miR-21 FLuc -1% and GLA inh pH 4.5 -6.
Screening O=C1c2ccc([N+](=O)[O-])cc2C(=O)N1Cc1cccnc1 returned Rango complex inh 1.1%, Rango dissoc inh 8% and miR-21 FLuc -4%.
CC(=O)Nc1ccc(NC(=O)C(C)OC(=O)C2(c3ccc(F)cc3)CCCC2)cc1 (stereo not drawn) was read as Rango complex inh -0.1%, Rango dissoc inh -5%, miR-21 FLuc 8% and GLA inh pH 4.5 -8.
For COP(=O)(OC)C(Nc1ccc(C)cc1)c1ccc(Br)cc1 (stereo not drawn) the results were Rango complex inh -1.7% and Rango dissoc inh 0%.
Screening C=CCOc1ccc(Br)cc1CNCCCN1CCOCC1 returned Rango complex inh 1.1%, Rango dissoc inh 1%, miR-21 FLuc -10% and GLA inh pH 4.5 2.
Screening CCCn1c(SCC(=O)N2c3ccccc3CCc3ccccc32)nc2c1c(=O)n(C)c(=O)n2C returned Rango complex inh 2.7%, Rango dissoc inh -6%, miR-21 FLuc 2% and GLA inh pH 4.5 -3.
For O=C(/C=C/Nc1ccc(F)c(Cl)c1)c1ccco1 the results were Rango complex inh inconclusive, Rango dissoc inh inconclusive, miR-21 FLuc -36% and GLA inh pH 4.5 -8.
Screening COc1ccc(OCCCC(=O)Nc2nccs2)cc1 returned Rango complex inh 2.6%, Rango dissoc inh -2%, miR-21 FLuc -16% and GLA inh pH 4.5 -11.
For O=C(COc1ccc2c(-c3ccccc3)cc(=O)oc2c1)NCCCn1ccnc1 the results were Rango complex inh -0.9%, Rango dissoc inh 10% and miR-21 FLuc -1%.
COc1ccccc1-c1cc(C(=O)Nc2c(F)cc(F)cc2Br)no1 was read as Rango complex inh 1.6%, Rango dissoc inh 1%, miR-21 FLuc -20% and GLA inh pH 4.5 2.
For CCOc1nc(OCC)c2[nH]c(C(=O)O)c(Br)c2n1 the results were Rango complex inh -4.1% and Rango dissoc inh 20%.
For O=S(=O)(c1ccc2ccccc2c1)N1CCN(CCO)CC1 the results were Rango complex inh 2.6%, Rango dissoc inh -5% and miR-21 FLuc -1%.
For Cn1c(=O)c2c(nc(SCc3cc4c(cc3Cl)OCO4)n2C)n(C)c1=O the results were miR-21 FLuc -6% and GLA inh pH 4.5 -6.
Cc1ccc(C)c2[nH]c(=O)c(CN(CC3CCCO3)C(=S)NCc3ccco3)cc12 (stereo not drawn) was read as Rango complex inh -3.0%, Rango dissoc inh -1%, miR-21 FLuc 7% and GLA inh pH 4.5 0.
CCOC(=O)c1c(C)[nH]c(C(=O)N2CCCC(C(=O)c3cccc(OC)c3)C2)c1C (stereo not drawn) was read as Rango complex inh -3.9%, Rango dissoc inh 3%, miR-21 FLuc -3% and GLA inh pH 4.5 -2.
Screening c1ccc(Cn2c[n+](Cc3ccccc3)cn2)cc1 returned Rango complex inh -0.2%, Rango dissoc inh 4%, miR-21 FLuc 1% and GLA inh pH 4.5 -28.
Cc1c(-c2nnc(SCC(=O)O)n2-c2ccccc2Br)nnn1-c1ccccc1 was read as Rango complex inh -0.6%, Rango dissoc inh 1%, miR-21 FLuc -2% and GLA inh pH 4.5 8.
Screening COc1ccc2c(c1)C=CC1(O2)N(CCO)c2ccccc2C1(C)C (stereo not drawn) returned Rango complex inh 9.4%, Rango dissoc inh 0% and miR-21 FLuc 0%.
Screening O=C(COC(=O)C1CC2CCCC(C1)C2=O)NNC(=O)c1ccccc1F (stereo not drawn) returned Rango complex inh 1.5% and Rango dissoc inh 9%.
`CC(=O)NCCC(=O)Nc1nc(-c2cccs2)c(-c2cccs2)s1` gave Rango complex inh -1.1%, Rango dissoc inh -3%, miR-21 FLuc 12% and GLA inh pH 4.5 6.
Screening COC(=O)c1ccc(NC(=O)C[n+]2ccccc2C)cc1 returned Rango complex inh -0.2%, Rango dissoc inh 12% and miR-21 FLuc -4%.
COc1ccc(C(N)=O)cc1N was read as Rango complex inh 2.4%, Rango dissoc inh -4%, miR-21 FLuc -3% and GLA inh pH 4.5 2.
`COc1ccccc1Nc1nc(N)nc(CN2CCC(C)CC2)n1` gave Rango complex inh 4.2%, Rango dissoc inh 13%, miR-21 FLuc -9% and GLA inh pH 4.5 6.
Screening CCCc1nnc(NC(=O)CCC(=O)N2CCN(Cc3cc(Cl)ccc3OC)CC2)s1 returned Rango complex inh 2.0%, Rango dissoc inh 0% and miR-21 FLuc -1%.
For COc1cc([N+](=O)[O-])cc2sc(NC(=O)C3CC3)nc12 the results were Rango complex inh 1.3%, Rango dissoc inh -5%, miR-21 FLuc -7% and GLA inh pH 4.5 -1.
`Cc1ccc(C(=O)NCCNC(=O)c2ccccc2)cc1` gave Rango complex inh -5.3%, Rango dissoc inh 16%, miR-21 FLuc -3% and GLA inh pH 4.5 5.
Screening O=C(CSc1nnc(CNC(=O)C23CC4CC(CC(C4)C2)C3)n1-c1ccccc1)Nc1ccccc1 returned Rango complex inh -0.4%, Rango dissoc inh 2%, miR-21 FLuc -1% and GLA inh pH 4.5 4.
Screening Nc1c(C(=O)CCC(=O)O)oc2ccc(Cl)cc12 returned Rango complex inh 1.6%, Rango dissoc inh 2%, miR-21 FLuc -9% and GLA inh pH 4.5 -1.
Screening Cc1ccc(C2C3=C(CC(C)(C)CC3=O)OC3=C2C(=O)CC(C)(C)C3)cc1 returned Rango complex inh -0.7%, Rango dissoc inh 1%, miR-21 FLuc 0% and GLA inh pH 4.5 -1.
